Source: PubChem
Polio RdRp inh: poliovirus RdRp elongation inhibitors, primary screen, biochemical, fluorescence polarization, total intensity. actives 0.66% (n = 150,000). poliovirus polymerase elongation; hits give low values. AID 588519, 2011. Genome polyprotein (Poliovirus type 1 (strain Mahoney)), P03300. % elongation, % (compound at 16.7 µg/mL); in the data active means % elongation below about 90%; further: some results filed as inactive read as strong as hits
Target sequence (P03300 1749-2209 limits assumed): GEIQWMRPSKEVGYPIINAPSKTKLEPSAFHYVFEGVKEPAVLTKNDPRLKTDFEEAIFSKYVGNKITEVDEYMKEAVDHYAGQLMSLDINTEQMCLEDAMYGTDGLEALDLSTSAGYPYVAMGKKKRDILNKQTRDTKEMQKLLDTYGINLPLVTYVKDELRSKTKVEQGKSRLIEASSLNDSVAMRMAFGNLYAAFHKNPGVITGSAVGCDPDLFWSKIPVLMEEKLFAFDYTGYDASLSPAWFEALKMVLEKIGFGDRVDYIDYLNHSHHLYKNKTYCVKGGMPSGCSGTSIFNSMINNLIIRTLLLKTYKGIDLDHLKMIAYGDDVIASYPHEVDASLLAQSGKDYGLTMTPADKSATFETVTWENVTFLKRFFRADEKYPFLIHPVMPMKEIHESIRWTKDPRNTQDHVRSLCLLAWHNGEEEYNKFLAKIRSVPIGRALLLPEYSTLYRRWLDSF
Mtb MenB inh: M. tuberculosis MenB inhibitors, primary screen, biochemical, absorbance | MenB enzyme assay, absorbance read-out; some hits fall short of the stated cut | inhibition, %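 (about 12 µg/mL by stock and volumes)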 | actives 0.43% (n = 100,000);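 active means mean of two replicates above 30%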;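 further: 0% = no compound and 100% = wells with inactive enzyme; the first replicate is given; strong numbers were not always called active; inactives centre near -10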
Target sequence (P9WNP5 whole entry, looked up): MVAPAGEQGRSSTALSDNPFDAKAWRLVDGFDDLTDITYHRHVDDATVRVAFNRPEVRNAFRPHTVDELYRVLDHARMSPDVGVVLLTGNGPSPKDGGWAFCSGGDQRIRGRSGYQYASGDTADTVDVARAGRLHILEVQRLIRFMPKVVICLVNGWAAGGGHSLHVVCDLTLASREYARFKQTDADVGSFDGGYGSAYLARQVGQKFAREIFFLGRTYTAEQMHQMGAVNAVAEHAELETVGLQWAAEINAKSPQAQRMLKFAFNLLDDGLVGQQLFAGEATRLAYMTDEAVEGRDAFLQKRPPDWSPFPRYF
MbtI inh: MbtI salicylate synthase inhibitors, primary screen, biochemical, fluorescence intensity. purified MbtI enzyme, fluorescence intensity read-out. P9WFX0. inhibition, %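 (about 17 µg/mL by stock and volumes)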. actives 0.89% (n = 100,000);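 active means above 50% in both replicates, above 80% if mildly self-fluorescent; inactive means the rest, strongly fluorescent compounds included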;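 further: 0% = mean of negative and 100% = mean of positive controls; one replicate is shown; some compounds called inactive have numbers as strong as hits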
Polio RdRp inh intensity: further read-out of Polio RdRp inh, marked with its call; % elongation; measured here: total intensity read-out; formula for this scale not given here;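 total fluorescence in place of polarization; lower means less elongation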
* hit, by the source's call; x = no result given; & = joins results of further samples. The order is random. About 1.8% of those tested had a hit in this group.

Results follow in this order: Polio RdRp inh	Polio RdRp inh intensity	Mtb MenB inh	MbtI inh
C/C(=C\C(=O)Nc1ccccc1)N1CCOCC1
  104	105	-20	-6
COc1ccc(C(=O)NCCc2nnc3ccc(SCC(=O)Nc4cc(C)on4)nn23)cc1
  100	108	-2	16
NNC(=O)c1ccc(CN2C(=O)c3cccc4cccc2c34)cc1
  107	97	-49	-2
CCOC(=O)c1nc2ccccc2oc1=O
  98	102	0	11
CCCC(C(=O)NC1CCCCC1)N1Cc2ccccc2C1=O (configuration not stated)
  102	97	7	18
O=C(CCC(=O)NC1CCN(Cc2ccccc2)CC1)NCc1ccco1
  101	100	-18	-22
O=C(C1CC(=O)N(c2ccc(F)c(Cl)c2)C1)N1CCCCC1 (configuration not stated)
  102	98	-10	4
Cc1ccc(Oc2ncc(C(F)(F)F)cc2Cl)c2c1CCC2
  97	96	-8	-4
CC[C@@]1(O)C(=O)OCc2c1cc1n(c2=O)Cc2cc3c(CN(C)C)c(O)ccc3nc2-1
  68	136	-2	-11
Brc1ccc(-c2cnc3ccccc3n2)s1
  109	115	-5	-15
CCOC(=O)c1c(N)n[nH]c1C
  101	110	-6	x
COC(=O)/C=C1\SC(=NC(=O)c2ccc(F)cc2)NC1=O
  100	98	-4	-51
CCC(C)(C)NC(=O)/C=C/c1cccs1
  109	108	-16	11
O=c1oc2ccccc2cc1-c1nc2c(s1)CCCC2
  108	104	-39	-272
Cc1[nH]c2ccc(S(N)(=O)=O)cc2c1C
  104	110	14	3
FC(F)(F)c1ccccc1CNCC1NCCc2ccccc21 (configuration not stated)
  102	104	-11	x
O=C(NC1CCCCC1)C1CC(c2c(F)cccc2Cl)=NO1 (configuration not stated)
  102	103	-13	-4
O=C(CNC(=O)C1CCCCC1)Nc1nc2ccccc2s1
  101	101	x	-6
O=C(NC1CC1)c1ccc(Cl)cc1Cl
  104	111	-20	x
CC(=O)Nc1cccc(OCC(=O)N2CCCCC2)c1
  99	104	3	-5
O=S(=O)(Cc1ccccc1)c1nc2ccccc2n1Cc1ccc(Br)cc1
  100	96	-39	-6
CCc1ccc(NC(=O)N2CC(C)Sc3ccccc32)cc1 (configuration not stated)
  103	99	10	2
CCN(CC)C1CCCCC1NS(=O)(=O)c1ccc(Cl)cc1 (configuration not stated)
  103	102	0	-11
O=C(O)CN1C(=O)C2CC=CCC2C1=O (configuration not stated)
  101	100	-1	-10
Cc1c(/C=N/NC(N)=S)c2ccccc2n1C
  99	102	12	4
CC(C)[C@H](NC(=O)c1ccco1)C(=O)N(C)Cc1ccc(C(F)(F)F)cc1
  103	103	-33	-25
COc1cc2c3nc4n(c(=O)c3n(CC(=O)N3CCCC3)c2cc1OC)CCS4
  101	103	-25	84
N#Cc1cc[n+](CC(=O)c2ccc(NC(=O)c3ccccc3)cc2)cc1
  100	104	-69	11
CCCNC(=O)c1ccc(CS(=O)c2ccc(Cl)cc2)o1 (configuration not stated)
  101	102	14	-4
CN=C(N=c1ccc(Br)cn1C(=NC)c1cccs1)c1cccs1
  102	92	-6	16
Cn1c(SCC(=O)NC2CC2)nnc1C(F)(F)F
  100	106	-3	7
COc1ccc(C23CC4CC(CC(C(=O)O)(C4)C2)C3)c(F)c1
  100	93	-25	-5
O=C(CSc1nnc(SCC(=O)c2ccc[nH]2)s1)c1ccc[nH]1
  105	121	-34	1
O=C1C(Cc2ccc(-c3nn[nH]n3)cc2)=C(c2ccccc2)S(=O)(=O)c2ccccc21
  97	101	13	4
O=C(c1ccc(Br)o1)N(c1ccc(Br)cc1)C1C=CS(=O)(=O)C1 (configuration not stated)
  100	98	-2	-3
Cc1cccc(NC(=O)CCn2ccc(C)n2)n1
  100	101	1	-26
Cc1ccc(-n2c(O)c(C=NCCc3ccco3)c3ccccc3c2=O)cc1
  98	105	-41	-8
CCOC(=O)C(Cc1ccc(NC(=O)c2ccccc2)cc1)N1C(=O)c2ccccc2C1=O (configuration not stated)
  101	103	-8	x
O=c1cnc2ccccc2n1CCOc1ccc(Br)cc1
  107	96	-29	-18
CCOC(=O)c1sc2[nH]c(C(C)(C)C)cc(=O)c2c1C
  98	92	9	105
CC1CCCC(C)N1C(=O)CSc1nc2ccccc2n1CC(=O)NC1CCCC1 (configuration not stated)
  101	104	7	1
Cc1[nH]c2ccc(C(=O)O)cc2c1CC(=O)O
  103	95	-30	-39
CC(Cn1cnc2ccccc21)C(=O)N/N=C/c1ccccc1 (configuration not stated)
  100	101	-9	20
O=C(O)C(Sc1nncc(-c2ccccc2)n1)c1ccccc1 (configuration not stated)
  99	103	-35	2
O=c1[nH]c2ccc(Cl)cc2c(-c2ccccc2)c1NCN1CCOCC1
  100	103	-34	-4
O=S1(=O)C=C(N2CCOCC2)c2ccccc21
  103	116	23	x
O=c1[nH][nH]c(=S)n2nc(-c3ccccc3)cc12
  103	102	-22	12
Nc1c(S(=O)(=O)c2ccccc2)c2nc3ccccc3nc2n1-c1ccc2c(c1)OCO2
  112	147	-7	78
COC(=O)c1cccc(Cn2nc(C)c(Cl)c2C)c1
  101	104	1	-1
CCN(CC)C(=O)Cn1nnc(-c2ccc(C)cc2)n1
  105	97	-13	x
CCC1SC(NC(=O)COc2ccc(OC)cc2)=NC1=O (configuration not stated)
  104	97	-65	5
Cc1cccc(N2C(=O)CNC2=S)c1
  100	102	4	1
COC(=O)Oc1ccc2c(=O)c(-c3ccccc3)coc2c1
  103	106	-6	-14
CC(C)c1csc2nc3n(c(=O)c12)CCCCC3
  100	102	-14	-2
CCCC(=O)Nc1ccc(N)cc1
  105	105	-9	x
CN(C)C=Nc1nc2ccccc2nc1N1CCOCC1
  99	102	-29	-16
O=P(CO)(c1ccc(Cl)cc1)c1ccc(Cl)cc1
  101	102	-31	-14
Cc1ccc(S(=O)(=O)NC(CO)C(=O)O)cc1 (configuration not stated)
  102	102	31*	5
CSc1ncc(C(=O)NCCc2ccccc2)c(C(F)(F)F)n1
  101	102	3	-17
CC(=O)Nc1ccc(S(=O)(=O)N=S(C)(C)=O)cc1
  102	105	-2	-7

Quoted from the listing.
CCOC(=O)C(Cc1ccc(NC(=O)c2ccccc2)cc1)N1C(=O)c2ccccc2C1=O (configuration not stated) in Polio RdRp inh intensity is listed with 103
Cn1c(SCC(=O)NC2CC2)nnc1C(F)(F)F in Mtb MenB inh is listed with -3
CC1CCCC(C)N1C(=O)CSc1nc2ccccc2n1CC(=O)NC1CCCC1 (configuration not stated) in Mtb MenB inh is listed with 7

The listing picks up with the 2 entries that preceded the break.
Results follow in this order: Polio RdRp inh	Polio RdRp inh intensity	Mtb MenB inh	MbtI inh
CSc1ncc(C(=O)NCCc2ccccc2)c(C(F)(F)F)n1
  101	102	3	-17
CC(=O)Nc1ccc(S(=O)(=O)N=S(C)(C)=O)cc1
  102	105	-2	-7
COc1ccc2cc1Oc1ccc(cc1)C[C@H]1c3c(cc4c(c3Oc3cc5c(cc3OC)CCN(C)[C@@H]5C2)OCO4)CCN1C
  101	102	-12	-22
O=C(CSc1nc2ccccc2c(=O)[nH]1)Nc1ccccc1N1CCOCC1
  110	115	-8	x
O=c1ccc(-c2ccc(F)cc2)n[nH]1
  100	105	-43	0
Cc1cc(C(=O)CSc2nnc(C(F)(F)F)n2C)c(C)n1C1CC1
  99	106	4	-6
O=C(CCCC(=O)n1nnc2ccccc21)Oc1ccccc1F
  103	95	1	x
Cc1cccc(C(=O)OCC(=O)N(C)C)c1O
  100	92	-29	-49
COCC(C)n1c(C)cc(C(=O)COC(=O)c2ccc(C#N)cc2)c1C (configuration not stated)
  95	101	3	10
O=C1CSC2=NC3=C(CCCC3=C3SCCCS3)C(c3ccccc3)N12 (configuration not stated)
  111	106	-55	-5
O=C(NCc1ccc2c(c1)OCO2)c1cccc(C(F)(F)F)c1
  102	106	-47	-14
O=C(/C=C/c1ccco1)Nc1ccc(N2CCCC2)cc1
  102	101	-5	x
CCN1CCN(Cc2ccc(NC(=O)Nc3ccccc3)cc2)CC1
  104	102	-2	2
CCN(CC)S(=O)(=O)c1ccc(-c2ccc(/C=C3/N=C4CCCCCN4C3=O)o2)cc1
  96	210	-52	-9
COc1ccc(CC(=O)N(C)Cc2cccc(OC)c2OC)cc1
  104	103	-23	-6
CCOC(=O)c1c(C)n(Cc2ccccc2)c2ccc(OCC(O)CN3C(=O)CNC3=O)cc12 (configuration not stated)
  98	103	-12	-93
Cc1cc(C)cc(NC(=S)NC(=O)C2CC2)c1
  101	103	-6	-6
COC(=O)c1cc2sccc2n1CC(=O)N(C)c1ccccc1
  105	107	0	2
CCNC(=S)N(C)c1ccc(O)cc1
  100	93	-24	-7
CN1CCN(CCc2nnc3n2CCCCC3)CC1
  99	97	x	-8
O=C(COc1ccccc1O)OCCO
  104	96	11	8
O=C(Nc1cccc(C(F)(F)F)c1)C(Sc1cccc[n+]1[O-])c1ccccc1 (configuration not stated)
  100	95	x	7
Cc1cc(C(=O)COC(=O)/C=C/c2ccco2)c(C)n1C
  x	x	-6	-2
CC(Sc1nnc(-c2cccs2)n1C1CC1)c1nc2ccccc2c(=O)[nH]1 (configuration not stated)
  101	105	-2	14
CCN(CC)CCNC(=O)COc1ccc(OC)cc1
  102&97	102&95	0&-4	-6&-12
O=C(O)/C=C/C(=O)N1CCN(c2ccccc2)CC1
  106	104	x	-14
CCCCn1c(N)c(N(C)C(=S)NCCCN2CCOCC2)c(=O)[nH]c1=O
  105	108	3	-4
COCc1cc(C)nc(SCC(=O)c2ccc(O)c(O)c2)c1C#N
  102	102	-30	8
CCN(Cc1ccncc1)C(=S)Nc1ccccc1
  101	104	11	-6
O=C(Oc1ccc(Br)cc1)C1CCC(N2C(=O)C3C4C=CC(C4)C3C2=O)CC1 (configuration not stated)
  101	97	-22	-7
CCn1cc(CO)c(C)n1
  102	102	-3	-4
O=C(c1cccs1)c1cn(CCOc2ccccc2)c2ccccc12
  102	95	-27	-1

Reformatted: entries from further up.
SMILES	Polio RdRp inh	Polio RdRp inh intensity	Mtb MenB inh	MbtI inh
CCCCn1c(N)c(N(C)C(=S)NCCCN2CCOCC2)c(=O)[nH]c1=O	105	108	3	-4
Cc1cccc(C(=O)OCC(=O)N(C)C)c1O	100	92	-29	-49
CCN(CC)CCNC(=O)COc1ccc(OC)cc1	102&97	102&95	0&-4	-6&-12

Remaining list, next part
Results follow in this order: Polio RdRp inh	Polio RdRp inh intensity	Mtb MenB inh	MbtI inh
CC1CCN(S(=O)(=O)c2ccc3[nH]cc(C(=O)NC4CCCCCC4)c(=O)c3c2)CC1
  100	102	-5	-78
CC(=O)Nc1ccc2c(COC(=O)Cc3coc4cc5c(cc34)CCC5)cc(=O)oc2c1
  104	96	-31	102
O=C(NCCSCc1ccccc1)c1ccccc1
  102	102	-23	-11
CC(=O)N1CCN(C(=O)c2ccc(S(=O)(=O)N3CCCc4ccccc43)cc2)CC1
  101	102	-7	14
O=S(=O)(c1ccccc1)N(c1cccnc1)S(=O)(=O)c1ccccc1
  104	103	-28	-9
COc1cc(/C=C2/SC(=Nc3ccccc3)N(N(C)C)C2=O)cc(Br)c1OC
  101	106	-15	x
CC1CCN(CC(O)COc2c(F)cc(Br)cc2F)CC1 (configuration not stated)
  107	111	7	x
CCN1CCc2c(sc3c2C(=O)NC(c2ccc(COc4cccc(C(F)(F)F)c4)o2)N3)C1 (configuration not stated)
  104	107	-26	13
CCOc1cccc(OCCCN(C)Cc2ccccc2)c1
  99	101	-38	3
CN(C)c1nc2ccccc2c(=O)s1
  105	110	-31	2
CSc1nc(C=Nc2cccc(Cl)c2)c(O)n1Cc1cccc(Cl)c1
  102	103	-109	-15
CCOc1ccc(-c2cc(C(=O)N3CCCCC3C)[nH]n2)cc1 (configuration not stated)
  100	102	-10	-18
CCOC(=O)C1=C(C)OC(N)=C(C#N)C1C1CCCCC1 (configuration not stated)
  100	103	-6	-9
Cc1ccc(NC(=O)Cc2nc(CN3CCCC3c3cccs3)cs2)cc1 (configuration not stated)
  108	104	6	7
NC(=O)c1ccsc1NC(=O)Cc1ccc(S(=O)(=O)N2CCOCC2)s1
  112	126	-11	-7
CN(CC(=O)NCc1cccs1)S(=O)(=O)c1cccc2cccnc12
  102	109	-35	1
COc1ccc(CCNc2oc(-c3ccc(C)cc3)nc2C#N)cc1OC
  99	102	28	87
O=C(O)CSCC(=O)Nc1ccc(-c2cn3ccsc3n2)cc1
  98	101	-9	10
COc1ccc(Cl)cc1-c1nc(SCC(=O)N(CC(C)C)C2CCS(=O)(=O)C2)n[nH]1 (configuration not stated)
  102	104	-39	1
CCN(CC)C(=O)c1ccc(N2C(=O)C3C4C=CC(C4)C3C2=O)cc1 (configuration not stated)
  101	103	3	-1
COC(=O)c1ccc(CSc2n[nH]c(=O)[nH]c2=O)cc1
  106	96	-32	-8
Cc1ccsc1/C=C/C(=O)NCC(=O)O
  104	103	2	13
CC1(C)CC(=O)c2cc(C(=O)Nc3cccc(O)c3)c(=O)[nH]c2C1
  99	103	-4	0
N#CCC(=O)N1CCN(C=O)CC1
  102	114	5	-5
Cc1cc(OCC(=O)OCC(=O)Nc2ccc(F)cc2)no1
  103	104	-11	1
